Screening results from PubChem BioAssay.
H5N1 antiviral: MDCK cell protection from H5N1 avian flu; 0.07% of 96,000 active; inhibition, % at 50 µM; cytopathic effect, luminescence, 72 h; stronger effect = higher value; no value below 0 was filed and about half of the inactive calls have no number; reference of the scale not given here; AID 740; in the data active = inhibition above about 25%
An asterisk follows results filed as active; i = inactive. A portion of the library; count on the stated rates, not on these rows.

Compound,H5N1 antiviral
O=C(Nc1cccc(Cl)c1)Nc1ccc2c(c1)OCO2,4.5
CN1CCN(S(=O)(=O)c2ccc3c(c2)OCCO3)CC1,0.5
Nc1[nH]n2c(=O)c3c(nc2c1N=Nc1ccccc1)CCCC3,20
CC1CCCN(C(=O)c2ccc(COc3ccccc3Br)cc2)C1 (configuration not stated),i
CCOc1ccc(N2C(=O)CC(Sc3ncccn3)C2=O)cc1 (configuration not stated),1.2
Oc1c(C(c2cccs2)N2CCN(c3ccc(F)cc3)CC2)sc2ncnn12 (configuration not stated),1.0
COCCSc1ccccc1C(=O)Nc1ccc2c(c1)OCCO2,i
Cn1c(O)c(C=NCCCC(=O)O)c(=O)n(C)c1=O,0.2
CSc1nnc(Cc2cc(=O)[nH]c(=O)[nH]2)n1-c1cccc(C)c1,0.6
COc1ccc(N=Cc2sc3ccccc3c2Cl)cc1,i
Cc1ccc(CS/C(Nc2ccccc2C)=C(\C#N)C(=O)NCc2ccco2)c(C)c1,0.2
Cc1cc(C)c(NC(=O)Cn2nnc(C(=O)NCc3cccs3)c2N)c(C)c1,i

Later entries
Compound,H5N1 antiviral
Cn1nc(OC(=O)Nc2ccc(F)cc2)cc1C(F)(F)F,i
O=S(=O)(c1ccc(Br)cc1)N1CCn2c(nc3ccccc32)C1,1.5
Cc1cn(C2OC(COC(=O)c3ccccc3)C(O)C2O)c(=O)[nH]c1=O (configuration not stated),0.9
COC(=O)CC(=O)CSc1nc(C)cc(C)c1C#N,0.8
CSCCC(NC(=O)COc1ccccc1)C(=O)N1CCN(c2ccccc2F)CC1 (configuration not stated),1.4
Cc1ccccc1Cn1c(CN2CCc3ccccc3C2)nc2c1c(=O)n(C)c(=O)n2C,1.9
O=C(NC1CC1)C1C2C3C4CC5C3C5C4C12 (configuration not stated),0.5
O=C(O)CSc1ncn[nH]1,i
O=C1CCN2C=Nc3cccc4ccc1c2c34,1.6
COc1ccc(N2CCN(C(=O)C3CCCN(S(=O)(=O)c4cccc5cccnc45)C3)CC2)cc1 (configuration not stated),0.8
Cc1ccc(Cn2nnc3c(=O)[nH]c(C4CCN(C(=O)c5cccs5)CC4)nc32)cc1,2.6
O=C(Cn1c(=O)oc2cc(S(=O)(=O)N3CCCCC3)ccc21)N1CCc2ccccc21,i

(listing goes on)
Compound,H5N1 antiviral
CCCOc1ccc(OCCNC2CCCC2)cc1,i
S=C(c1ccc(-c2ccc(Cl)cc2)o1)N1CCCCC1,2.5
O=C1c2ccccc2C(Nc2ccccc2F)N1c1cccnc1 (configuration not stated),0.4
COc1ccc(S(=O)(=O)N(C)CC(=O)N2CCCCCC2)cc1OC,i
COc1ccc(CCNc2ncnc3c2oc2ccccc23)cc1OC,0.3
Cc1cccc(C(=O)N/N=C/c2ccc(OCC(=O)N3CCCCC3)cc2)c1,i
O=C(/C=C/c1cccs1)c1ccc(Br)cc1,i
CCOC(=O)C1CCN(C(=O)Nc2ccc3nc(-c4ccco4)c(-c4ccco4)nc3c2)CC1,i
Cc1cc(C)cc(NC(=O)c2nnn(Cc3cc(C)ccc3C)c2N)c1,i
Cc1cccc(C)c1-n1c(SCC(=O)NCc2ccco2)nc2ccccc2c1=O,1.8
COc1ccc(OCC(=O)N2CCN(S(=O)(=O)c3ccc(Cl)cc3)CC2)cc1,0.2
CCN(CC)CCN1C(=O)C(=O)/C(=C(/O)c2ccc(OC(C)C)cc2)C1c1ccncc1 (configuration not stated),i

(list continues)
Compound,H5N1 antiviral
COc1cc(C(c2c(C)[nH][nH]c2=O)c2c(C)[nH][nH]c2=O)ccc1OS(=O)(=O)c1ccc(C)cc1,0.1
O=C(NCc1cccnc1)c1cccc(NC(=O)c2ccco2)c1,1.1
CCCOC1(NC(=O)c2ccccc2)C(C)=CC(=O)C=C1C,1.7
COc1ccc(C(=O)Nc2nc(N)n(-c3ccccc3)n2)cc1OC,i
O=C(Cc1cc(=O)[nH]c(=O)[nH]1)NCCN1CCOCC1,0.3
Cc1ccc(OC(=O)C(C)c2cccc(C(=O)c3ccccc3)c2)cc1 (configuration not stated),i
Cc1ccc2c(c1)[nH]c1c(=O)n(Cc3ccccn3)cnc12,i
CCc1ccc(CSc2nccn2-c2ccccc2)cc1,0.0
COc1ccccc1CC1C(=O)C2CCN1CC2 (configuration not stated),0.7
CNC(=O)c1cn(-c2ccccc2)c(=O)c2ccccc12,1.3
O=C(c1cc2ccccc2oc1=O)N(Cc1cccs1)C1CCS(=O)(=O)C1 (configuration not stated),i
Cc1ccc(C)c(N2CCN(C(=O)Cn3cccc3)CC2)c1,i

Next section
Compound,H5N1 antiviral
CC1(C)C2CCC1(CS(=O)(=O)N1CCOCC1)C(=O)C2 (configuration not stated),i
Cc1ccccc1OCC(=O)N/N=C/c1ccc(Sc2nc3ccccc3s2)o1,i
CC1CN(C(c2cccs2)c2sc3ncnn3c2O)CC(C)O1 (configuration not stated),i
O=C(c1cc(-c2ccco2)on1)N1CCCc2ccccc21,1.1
CCOc1cc2[nH]c(=S)n(CCCCC(=O)NCc3ccco3)c(=O)c2cc1OCC,i
CC(=O)Nc1c(O)nc(SCC(=O)Nc2c(C)cccc2C)[nH]c1=O,0.4
Cc1nnc(SCC(=O)Nc2ccc3c(c2)COC3=O)n1-c1ccccc1,0.5
COc1cc(C(=O)Nc2ccc(S(=O)(=O)N3CCCCC3C)cc2)cc(OC)c1OC (configuration not stated),i
CCSC1=C(C#N)C(c2cccc(O)c2)CC(=O)N1 (configuration not stated),i
CCCN1CCC(N(C)CCc2ccc(OC)c(OC)c2)CC1,0.8
CCC(C)Nc1nc2c(c(=O)n(C)c(=O)n2C)n1Cc1ccc(F)cc1 (configuration not stated),3.0
Clc1ccc(-c2cnc3n2CCC3)cc1,0.6

Additional results.
Compound,H5N1 antiviral
Cc1cc(C)c2c(N)c3ccccc3nc2n1,i
O=C(Nc1cc(C(=O)N2CCCC2)ccc1N1CCCC1)c1ccccc1,i
CSc1cccc(NC(=O)/C=C/c2ccccc2)c1,1.6
CCOC(=O)c1cn(CC)c2ccc(S(=O)(=O)N3CCC(C)CC3)cc2c1=O,0.2
COCCNC(=O)CSc1nc2ccc(N3CCOCC3)cc2c(=O)n1CCc1ccccc1,0.9
CN1CCN(S(=O)(=O)c2ccc(SCCOc3ccccc3)nc2)CC1,0.8
COc1ccc(-c2ccc(=O)n(CC(=O)Nc3nnc(C(C)C)s3)n2)cc1OC,0.5
Cc1ccccc1NC1=NCCCS1,i
O=C(Oc1c(Cl)cc(Cl)c2cccnc12)N1CCOCC1,0.6
CCNc1nc(C)nc2c1oc1ccccc12,i
O=C(O)COCCN1CCN(C(c2ccccc2)c2ccc(Cl)cc2)CC1 (configuration not stated),i
CC(C)(C)n1nnnc1C(c1ccc(Cl)cc1)N1CCCc2ccccc21 (configuration not stated),1.0

(next part)
Compound,H5N1 antiviral
CCOC(=O)C(NCCCCl)c1ccccc1 (configuration not stated),i
Cc1c(NC(=O)C2CCCN2C(=O)c2cccs2)c(=O)n(-c2ccccc2)n1C (configuration not stated),i
c1ccc2sc(SN3CCOCC3)nc2c1,0.3
O=C(Nc1cc(Cl)cc(Cl)c1)C(NCCO)c1ccccc1 (configuration not stated),0.7
CC(=O)N1CCN=C1SCc1ccccc1,2.4
CCOCCCNC(=O)CN1C(=O)C(CC)Oc2ccccc21 (configuration not stated),0.9
Cn1c(SCc2cccnc2)nnc1-c1c[nH]c2ccccc12,0.7
CN(C)c1ccc(C2NCC(CCl)O2)cc1 (configuration not stated),i
CCOC(=O)C1CCCN(C(=O)c2cc(Cl)ccc2Cl)C1 (configuration not stated),0.5
CN(C)S(=O)(=O)Oc1cccc(C(=O)Nc2ccc(Cl)cc2)c1,i
CCOC(=O)Cc1c(C)nc2c(-c3ccccc3)c(-c3ccccc3)[nH]n2c1=O,0.1
CN(CCOc1ccc(-c2ccn(S(=O)(=O)c3cccc4ccccc34)n2)cc1)c1ccccn1,1.1

Filtered by structure: those above with a Cl atom (13)
Compound,H5N1 antiviral
O=C(Nc1cccc(Cl)c1)Nc1ccc2c(c1)OCO2,4.5
COc1ccc(N=Cc2sc3ccccc3c2Cl)cc1,i
S=C(c1ccc(-c2ccc(Cl)cc2)o1)N1CCCCC1,2.5
COc1ccc(OCC(=O)N2CCN(S(=O)(=O)c3ccc(Cl)cc3)CC2)cc1,0.2
Clc1ccc(-c2cnc3n2CCC3)cc1,0.6
O=C(Oc1c(Cl)cc(Cl)c2cccnc12)N1CCOCC1,0.6
O=C(O)COCCN1CCN(C(c2ccccc2)c2ccc(Cl)cc2)CC1 (configuration not stated),i
CC(C)(C)n1nnnc1C(c1ccc(Cl)cc1)N1CCCc2ccccc21 (configuration not stated),1.0
CCOC(=O)C(NCCCCl)c1ccccc1 (configuration not stated),i
O=C(Nc1cc(Cl)cc(Cl)c1)C(NCCO)c1ccccc1 (configuration not stated),0.7
CN(C)c1ccc(C2NCC(CCl)O2)cc1 (configuration not stated),i
CCOC(=O)C1CCCN(C(=O)c2cc(Cl)ccc2Cl)C1 (configuration not stated),0.5
CN(C)S(=O)(=O)Oc1cccc(C(=O)Nc2ccc(Cl)cc2)c1,i

Continued:
Compound,H5N1 antiviral
Cn1c(SCC(=O)NC(C)(C)C)nnc1-c1cccc(NC(=O)c2ccccc2F)c1,1.4
Clc1ccc(-c2nnn(Cc3nc4ccccc4s3)n2)cc1,i
Cc1ccc(NC(=O)CSc2nc(NS(=O)(=O)c3ccccc3)cc(=O)[nH]2)cc1,i
Cc1cccc(C)c1NC(=O)N1CCN(c2nc3ccccc3s2)CC1,i
CCC(CC)c1nnc(NC(=O)CCN2C(=O)c3ccccc3C2=O)s1,0.6
COc1ccc(C)cc1NC(=O)Cn1cnc2sc(C)c(S(=O)(=O)N3CCOCC3)c2c1=O,0.4
Cc1ccc(-c2cc3ccccc3nc2N2CCCC2)cc1,i
COc1ccc(-c2cc(C(=O)Oc3ccc([N+](=O)[O-])cc3)c3ccccc3n2)cc1,i
CC1CCCC(NC(=O)c2n[nH]c(=O)c3ccccc23)C1C (configuration not stated),1.2
CN(C)CC(C)(C)CNC(=O)c1cc(=O)c2ccccc2o1,i
COC(=O)[C@H](CCSC)NC(=O)Nc1ccc(C)cc1,i
CCN(C(=O)COC(=O)c1cnc(C)cn1)C1CCCCC1,i

Continued:
Compound,H5N1 antiviral
COc1ccc(C(=O)OCC(=O)c2ccccc2)cc1S(=O)(=O)N1CCOCC1,i
N#Cc1ccccc1Sc1ccccc1C(=O)Nc1ccccc1,i
COc1ccccc1C(=O)Oc1cc(N)n(S(=O)(=O)c2ccc(C)cc2)n1,0.2
COc1cccc(C(=O)O/N=C(\N)c2ccc([N+](=O)[O-])cc2)c1OC,i
CCc1ccccc1N(C(=O)c1cccs1)C1C=CS(=O)(=O)C1 (configuration not stated),1.6
COc1ccc2c(c1)CCc1c(C(=O)N3CCOCC3)noc1-2,i
O=C(CCN1CCN(CCO)CC1)Nc1ccc(OCc2ccccc2)cc1,i
COc1ccccc1CN1C(=O)[C@@H]2C(CC(N)=O)NC3(C(=O)Nc4c3ccc(Cl)c4C)[C@@H]2C1=O (some centres not stated),i
COc1ccc(N2CCN(C(=O)C(CCSC)N=C3NS(=O)(=O)c4ccccc43)CC2)cc1 (configuration not stated),i
COc1ccc(Nc2nc(N3CCCC3)nc(N3CCCC3)n2)c(OC)c1,0.1
O=C1c2ccccc2C(Nc2ccc3c(c2)OCO3)N1Cc1ccco1 (configuration not stated),i
O=C(c1ccncc1)c1ccc(Br)cc1,i

New compounds follow.
Compound,H5N1 antiviral
Cc1ccc(-c2nc(CSCC(=O)N3CCOCC3)c(C)o2)cc1,1.3
Cc1noc(C)c1COc1ccc(C(=O)OCC(=O)NC(=O)C2COc3ccccc3O2)cc1 (configuration not stated),i
CCCCn1nc(C(=O)N[C@@H](CCSC)c2nc3ccccc3[nH]2)c2ccccc2c1=O,i
CN=C1SC(C(=O)O)CC(=O)N1C (configuration not stated),i
N/C(=N\OC(=O)Cc1ccc(-c2ccccc2)cc1)c1cccnc1,0.2
Cc1cccc(CSc2nnc(-c3ccccn3)n2N)c1,i
C/C(N)=C(/C#N)C(=O)COC(=O)c1cc(C)n(-c2ccc(F)cc2)c1C,i
CS(=O)(=O)N1CCC(NC(=O)Cc2ccccc2)CC1,0.8
CCC1(CC)Cc2ccccc2-c2nc(CN3CCOCC3)[nH]c(=O)c21,i
Cc1ccc(-c2nc3ccccc3[nH]2)cc1NC(=O)c1sc2ccccc2c1Cl,0.1
CCc1ccc2[nH]c(=O)c(CN(CCN(C)C)C(=O)Nc3ccccc3)cc2c1,i
C=CCOn1c(=O)c(C)[n+]([O-])c2ccccc21,0.6

Carrying on:
Compound,H5N1 antiviral
CC(=NCCCn1ccnc1)c1c(-c2ccccc2)[nH]n(-c2nc3ccccc3s2)c1=O,i
Cn1c(=O)c2c(ncn2CC(=O)N(Cc2ccccc2)c2ccccn2)n(C)c1=O,i
CC(C)(C)OC(=O)N1CCC[C@H]1c1nnc(SCc2ccc(Cl)cc2Cl)o1,1.9
C1CCN=C(Nc2nc3c(s2)CCCC3)CC1,0.5
CC(=O)CCc1c(C)[nH]c2ccccc2c1=O,0.5
COc1ccc(NC(=O)CCN2CCN(S(=O)(=O)c3cc(Cl)ccc3Cl)CC2)cc1,i
COc1ccc(OCCSc2nnc(-c3ccc(OC)cc3)n2N)cc1,0.7
CC(C)(C)OC(=O)N1CCC[C@H]1c1nnc(SCc2ccccc2F)o1,1.2
CC(Oc1ccc(-c2ccccc2)c(F)c1)c1ccn(S(=O)(=O)c2ccc(Br)cc2)n1 (configuration not stated),1.8
CCCCC1S/C(=N/N=C/c2ccc(OC)cc2)N(Cc2ccc(OC)cc2)C1=O (configuration not stated),i
C=CCn1c(SCn2nnc3ccccc3c2=O)nc2scc(-c3cccs3)c2c1=O,i
CN1CCN(CCOc2cccc(Cl)c2)CC1,i
C=CCn1c(=O)c2c3c(sc2n2c(Nc4ccccc4)nnc12)CCCC3,10
